# Assay outcomes deposited in PubChem BioAssay by Fisher Drug Discovery Resource Center.
# NPYLR7 ag: agonists of mosquito NPYLR7 receptor, primary screen, cell-based, Aedes aegypti, calcium fluorescence, mosquito biting behavior. HEK293T NPYLR7/Galpha15, GCaMP6s calcium fluorescence. activation, % at 10 µM. actives 0.15% (n = 270,000); in the data active = activation above about 40%;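 note: 0% = vehicle and 100% = reference agonist at the receptor; some compounds past the cut are filed as inactive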
# NPYLR7 ag max-min: also measured in NPYLR7 ag; calls as there; activation, %; measured here: Max-Min RFU normalised activation; some inactives read as strong as hits;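 span of the calcium signal over five minutes; 0% = vehicle and 100% = native peptide agonist; compound fluorescence can raise it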
# Starred values were filed as active, the others as inactive; & = joins results of further samples. Not all compounds are listed. The share of hits here may be higher or lower than overall.
Molecule | NPYLR7 ag | NPYLR7 ag max-min
COc1ccc2nc(CCN(C)Cc3cc4n(n3)CCCNC4)[nH]c2c1 | 3.3 | -1.2
CCN(CC(=O)NC(C)(C)C)c1ncnc2c1oc1ccccc12 | 2.0 | 0.8
C=CCCC(O)CN(CCOC)Cc1c(C)nn(-c2ccc(F)cc2)c1Oc1cccc(F)c1 (stereo not given) | -2.4 | 3.9
Cc1c(C)c2c(c(C)c1O)CCC(C)(C(=O)NCCCO)O2 (stereo not given) | -9.1 | -18.1
COc1ccc(Cl)cc1C(=O)Oc1coc(CSc2nc(C)cs2)cc1=O | -10.4 | -12.0
CC1ON=C(c2ccccn2)N(Cc2ccc3c(c2)OCO3)C1=O (stereo not given) | 5.0 | 2.6
C/C(=C/C(=O)N(C)Cc1cc(C)on1)c1ccc(F)cc1 | 4.3 | 3.9
O=C(C=CNc1cccnc1)C(F)(F)F | -0.2 | -9.1
Cc1oc(C)c(-c2ccoc2)c1C(=O)NCCC(c1ccccc1)c1ccccc1 | -3.2 | -6.0
COCCN(Cc1cc(NC(=O)COC)ccc1N(C)C)C(=O)c1ccco1 | 0.1 | 3.3
CC(=O)O[C@@H]1c2c(ccc3ccc(=O)oc23)OC(C)(C)[C@@H]1OC(=O)CC(C)C | -3.5 | -2.0
CCc1ccc(S(=O)(=O)NCC(CO)Cc2ccccc2)cc1 (stereo not given) | 3.6 | 0.4
CCOC(=NCc1cccnc1)NC(=O)c1ccc2c(c1)OCO2 | 8.4 | 13.0
Cc1cc(=O)n(CC(=O)N2CCN(c3ccccc3)CC2)c(-n2nc(C)cc2C)n1 | -5.3 | -7.0
CCOc1ccc(-c2cc(=O)n(CC(=O)NCc3ccccn3)cn2)cc1 | 12.9 | 2.3
CCCCCCC(=O)Nc1ccc(C2SCC(=O)N2c2cc(F)ccc2F)cc1 (stereo not given) | -3.5 | -1.6
CC(c1cccs1)N(C)C(=O)Cc1[nH]nc2ccccc12 (stereo not given) | 23.8 | 15.4
COc1cc(C(C)=O)ccc1Oc1cccc(Cl)c1C#N | -1.6 | 7.7
O=C(Nc1ccc2c(c1)OCO2)N1CCc2ccccc2C1c1ccc(F)cc1 (stereo not given) | -1.3 | 10.2
CCCc1[nH]n(-c2ccccc2)c(=O)c1C1=C(N2CCOCC2)C(=O)N(Cc2ccco2)C1=O | 3.9&-1.5 | 14.8&5.2
CC(=O)Nc1ccc(CN(C)c2c(C)nc3ccc(C(=O)N4CCCC(C(N)=O)C4)cn23)cc1 (stereo not given) | 17.1 | 3.8
CCCc1cc(C(=O)N2CCC3(CC2)c2ccccc2[C@@H](NC(=O)c2ccccn2)[C@@H]3OC)n(C)n1 | 22.9 | 12.5
CC(=O)c1cccc(N=Nc2c(-c3ccc([N+](=O)[O-])cc3)[nH]n(-c3ccccc3)c2=O)c1 | -4.8 | -10.2
Cc1nnc(NC(=O)CSc2nc(CC(=O)NCc3cccs3)cc(=O)[nH]2)s1 | -20.1 | -25.0
COC(=O)CS(=O)(=O)c1ccc2c(c1)S(=O)(=O)N=CN2 | 7.5 | -5.9
Cc1cc(C)cc(CC(=O)N2CCC2(C)C(=O)NS(=O)(=O)c2ccccc2C(F)(F)F)c1 (stereo not given) | 3.6 | 4.0
Cn1nc(CC2CCN(Cc3ccncc3)CC2)n(-c2ccccc2)c1=O | 24.2 | 9.6
N#Cc1c(N)sc2c1CCN(c1nccc(C(F)(F)F)n1)C2 | 8.3 | 5.3
O=C(NCCc1nc2ccccc2[nH]1)c1cc(F)ccc1Br | 2.7 | 2.0
Cc1noc(C)c1-n1c(C2CCCN(C)C2)n[nH]c1=O (stereo not given) | 12.2 | 8.1

# Two compounds drawn at random from those above:
Molecule | NPYLR7 ag | NPYLR7 ag max-min
CCCCCCC(=O)Nc1ccc(C2SCC(=O)N2c2cc(F)ccc2F)cc1 (stereo not given) | -3.5 | -1.6
Cn1nc(CC2CCN(Cc3ccncc3)CC2)n(-c2ccccc2)c1=O | 24.2 | 9.6

# Additional results follow.
Molecule | NPYLR7 ag | NPYLR7 ag max-min
CCOC(C)c1nc(CSc2ncnc3c2cnn3C)cs1 (stereo not given) | 4.6 | 1.2
CC(C)N(CC1COc2ccccc2O1)C(=O)c1cc2n(n1)CCCNC2 (stereo not given) | -8.2 | -6.8
O=C(Nc1ccccc1)C(=O)N1CCc2c(ncnc2N2CCOCC2)C1 | -2.7 | -4.8
COc1ccc(-c2c(C)nn3c(-n4ccnc4C)cc(C)nc23)cc1OC | 3.5 | 3.5
O=C(c1cc2c(=O)n3ccccc3nc2s1)N1CCCCCC1 | 11.8&5.8 | 2.9&2.2
COc1cc(C(=O)Nc2nc(C)c(C)s2)ccc1OC(F)F | -1.6 | -3.2
COc1ccc(OC)c(C2c3cccn3CCCN2Cc2cccc(Cl)c2)c1 (stereo not given) | -9.6 | -7.0
Cc1nccc(C(=O)OC2CC3CCC2C3)n1 (stereo not given) | -2.5 | -2.8
COCCN1C(=O)C(c2c(C)[nH]n(-c3ccc(F)cc3)c2=O)=C([n+]2cccc(C)c2)C1=O | -3.3 | -2.2
O=C(O)[C@H]1C[C@H](C(=O)NC2CC2)CN(C(=O)CCCc2cccs2)C1 | 7.0 | 5.0
O=C(CSc1ccc(C(=O)NCCc2ccccc2F)cn1)c1ccc(Cl)cc1 | -1.9 | -2.8
COc1ccccc1CNCc1cccs1 | 0.9 | -1.0
COCCNC(=O)[C@@]1(OCc2ccccc2C)CC(OCc2cccc(C(F)(F)F)c2)[C@H](O)[C@H](O)C1 (stereo not given in full) | 22.2 | 19.1
CCc1ccccc1C1NCCCn2cccc21 (stereo not given) | 27.3 | 34.8
CCOC(=O)C1CCCN(Cc2nc(-c3ccc(C(=O)OC)cc3)no2)C1 (stereo not given) | 0.9 | -0.3
CCc1ccc2c(c1)c(=O)c(S(=O)(=O)c1ccc(F)cc1)cn2C | -0.9 | -6.6
O=C(O)c1ccc2c(c1)CCN2S(=O)(=O)c1ccc(F)cc1 | -5.3 | -7.3
COc1ccccc1C(=O)CN1CCCCCC1(C)C(=O)NC(C)C (stereo not given) | 3.5 | 1.8
Cc1ccc(NC(=O)CCNC2CCC3(CCNCC3)CC2)c(C)c1 | 16.1 | 12.5
O=C(Nc1ccc(-c2noc(-c3ccccc3F)n2)cc1)c1cccs1 | -4.3 | -8.7
O=C(CCn1c(=O)oc2ccc(Cl)cc21)Nc1ccc(S(=O)(=O)Nc2nccs2)cc1 | 7.9 | 11.4
Cc1nnc(NC(=O)c2ccc(Cl)c([N+](=O)[O-])c2)s1 | -2.3 | -5.0
CCCN(CCC)c1nc(OC)nc(-n2nnc(C(C)=O)c2C)n1 | -5.1 | -6.4
CN(C)CCCN(C)C(=O)C1CC(=O)N(Cc2ccc(Cl)cc2)C1 (stereo not given) | 3.2 | 4.4
CC(C)c1ccc(CC(=O)N2CCC2(C)C(=O)NS(=O)(=O)Cc2ccccc2C(F)(F)F)cc1 (stereo not given) | -0.7 | -5.6
CCc1nc2c(OCc3ccc(Cl)cc3)cccn2c1N(C=O)Cc1ccccc1 | 5.7 | 2.3
N#Cc1ccc(COC(CN2CCN(C(=O)c3ccc(F)c(F)c3)CC2)c2cccc(N3CCCC3)c2)cc1 (stereo not given) | 5.8 | 1.3
CCOC(=O)c1cnc2ccc(Cl)cc2c1NCc1ccccc1 | 1.6 | -0.5
Cc1ccc2cc(CCNC(=O)C(C)(C)Oc3ccc(Cl)cc3)c(=O)[nH]c2c1 | 0.3 | 21.2
CC(C)=CC(=O)NCCC1CN(Cc2cnc(C)nc2)CCO1 (stereo not given) | 7.0 | -2.0

# Shown with each value named: part of the list above.
> O=C(CCn1c(=O)oc2ccc(Cl)cc21)Nc1ccc(S(=O)(=O)Nc2nccs2)cc1
  NPYLR7 ag: 7.9 | NPYLR7 ag max-min: 11.4

> CCOC(=O)c1cnc2ccc(Cl)cc2c1NCc1ccccc1
  NPYLR7 ag: 1.6 | NPYLR7 ag max-min: -0.5

> COc1ccccc1C(=O)CN1CCCCCC1(C)C(=O)NC(C)C (stereo not given)
  NPYLR7 ag: 3.5 | NPYLR7 ag max-min: 1.8

> O=C(O)c1ccc2c(c1)CCN2S(=O)(=O)c1ccc(F)cc1
  NPYLR7 ag: -5.3 | NPYLR7 ag max-min: -7.3

# Continued.
Molecule | NPYLR7 ag | NPYLR7 ag max-min
Cc1ccc(CNC(C)c2ccc(N3CCN(C)CC3)c(F)c2)o1 (stereo not given) | 3.6 | 1.9
O=C1NC(=S)N/C1=C\c1ccc(Oc2ccc([N+](=O)[O-])cn2)cc1 | 8.7 | 14.3
O=[N+]([O-])OCC(CO[N+](=O)[O-])O[N+](=O)[O-] | 7.3 | 1.8
Cc1ccc(CNC(=O)CSc2nc(=O)n3ccc(C)cc3n2)cc1 | 1.9 | -2.4
COc1ccc(Cl)cc1/C=C/C(=O)NC(c1n[nH]c(C)n1)C(C)C (stereo not given) | -3.1 | 7.2
CCCNC(=O)CN1CCN(C(=O)c2cn(C)cc3c(=O)n(-c4ccccc4)nc2-3)CC1 | -2.8 | -6.1
COc1cc(=O)n(-c2ccc(F)cc2)nc1C(=O)N1CCCCC1 | 11.4 | 3.6
Cc1cccc2nc(C(=O)NC(C)c3cccc(C(F)(F)F)c3)cn12 (stereo not given) | 14.5 | 6.3
CCCC(Nc1cc(C)nc(-c2cccnc2)n1)c1nccn1C (stereo not given) | 14.6 | 8.1
Cc1noc(CS(=O)(=O)Cc2ccc(Cl)s2)n1 | 4.5 | 2.0
COCCN(CCOC)C(=O)c1ccc(-c2ccc(F)cc2)n1C | 2.7 | 2.5
COc1ccc(S(=O)(=O)NCC2CCCN(C(=O)c3c(C)noc3C)C2)cc1 (stereo not given) | -2.1 | -1.7
CC1CN(CC2(CN3CC(C)OC(C)(C)C3)COC2)CC(C)(C)O1 (stereo not given) | -0.9 | -2.4
Cc1ccc(NS(=O)(=O)c2ccc3[nH]cc(C(=O)O)c(=O)c3c2)cc1Cl | 0.3 | -3.0
N#CC1C(SCC(=O)N2CCc3ccccc32)=NC2=C(C(=O)CCC2)C1c1cccnc1 (stereo not given) | 2.0 | 1.1
O=C(CC1CCS(=O)(=O)C1)Nc1cnc2n1CCCC2 (stereo not given) | 14.5 | 11.3
CN(C(=O)c1ccccc1)c1ccc(OCC(=O)O)cc1 | -0.5 | -5.6
CN(Cc1cccnc1)C(=O)c1cc(COc2ccc(F)c(F)c2)on1 | 13.1&2.1 | 1.5&-1.6
O=C(C1CCCO1)N(Cc1ccccc1)c1nc2c(s1)CCCC2 (stereo not given) | 1.9&9.8 | 8.5&2.9
c1ccc(NC2CCCN(Cc3ccc4c(c3)OCCO4)C2)cc1 (stereo not given) | 4.3 | 2.6
CCc1cccc(OCc2nc(C(=O)NCc3ccc(F)cc3)cs2)c1 | 21.4 | 12.3
CCCCCCc1ccc(C(=O)N2CCc3nc(-c4ccccc4)nc(N4CC(C)OC(C)C4)c3C2)cc1 (stereo not given) | -0.4 | 10.7
COC(=O)C1=C(SC)N(c2ccccc2)C(c2ccccc2)CC1=O (stereo not given) | 6.3 | 8.7
CCOc1ccc(-c2cc3c(=O)n(CC(=O)NCc4ccc(Cl)cc4)ccn3n2)cc1 | 2.8 | 0.4
CC(=O)Nc1ccc(N2C(=O)CSC2c2c(F)cccc2Cl)cc1 (stereo not given) | -4.3 | -12.6
CCOC(=O)C(NC(=O)c1cc2nc(-c3cccs3)cc(C(F)(F)F)n2n1)C(=O)OCC | 2.5 | 2.5
COc1ccc(CCN(Cc2ccc(C)o2)C(=O)CN(C(=O)Nc2ccccc2C)C2CC2)cc1OC | -7.5 | 6.1
Cc1ccccc1-c1nc2ccc(-n3cnnc3)cc2o1 | 18.3 | 12.5
COCCS(=O)(=O)Nc1ccc(Br)c(C)n1 | 10.4 | 7.1
CC(NC(=O)NCCc1cnn(C)c1)C1CCCO1 (stereo not given) | 3.6 | 0.9
CC1CN(C)CCC1N(C)S(=O)(=O)c1cc(F)ccc1Cl (stereo not given) | 5.4 | 4.5
CC1CN(Cc2csc(NC(=O)c3cccc(Cl)c3Cl)n2)CC(C)O1 (stereo not given) | 12.9 | 10.4
Cc1cccc(COC2CCCN(C(=O)c3ccc(F)cc3)C2)c1 (stereo not given) | -8.1 | -2.2
CCOC(=O)c1nc2ccccc2nc1N1CCN(C(=O)c2ccc3c(c2)OCO3)CC1 | 3.5 | -0.6
COC(=O)C1=C(C)OC(=O)C1(NC(=O)C1CCCCC1)C(F)(F)F (stereo not given) | 4.3 | 2.6
O/N=C1/CCc2nonc2/C1=N/Nc1ccccc1 | 3.5 | 3.3
c1ccc2sc(C3CCCCN3)nc2c1 (stereo not given) | 4.9&-3.9 | 3.7&-5.0
CC(C)c1ccc(/C=N\NC(=O)CSc2nnc(-c3ccccc3)n2-c2ccccc2)cc1 | -6.1 | 3.0
COc1ccc(C2=NN(C(=O)c3ccc(Nc4nc(-c5ccccc5)c5cc(Cl)ccc5n4)cc3)C(c3cccc([N+](=O)[O-])c3)C2)cc1 (stereo not given) | -0.8 | 7.0
Cc1cc(C)cc(N2CCn3c2nc2c3c(=O)n(Cc3cc(C)ccc3C)c(=O)n2C)c1 | 3.6 | 0.8
O=C(CCOCC(F)(F)F)NC(c1cccs1)c1cccs1 | -15.9 | -15.2
CN(C)S(=O)(=O)N1CCC(Oc2cccc(C(=O)N3CCSCC3)c2)CC1 | -5.5 | -7.2
CCC(=O)N1c2ccccc2N=C2CC(C)(C)CC(=O)C2C1c1ccc(N(C)C)cc1 (stereo not given) | -7.4 | -12.2
CN1OC(C)(CC(=O)N2CCCC2)N=C1c1ccc(N(C)C)cc1 (stereo not given) | 7.5 | 1.3
CCOC(=O)C1CCN(C(=O)c2ccc(CSc3nc(C)cc(N4CCN(C/C=C/c5ccccc5)CC4)n3)cc2)CC1 | 4.7 | 15.7
O=C(NCC1(Cn2cccn2)CC1)c1cccc2c1NCCC2 | 5.6 | 3.3
CCOC(=O)c1cc(=O)c2ccccc2n1C | -7.3 | -8.9
